SARS PLP yeast = inhibitors of SARS-CoV papain-like protease in yeast. S. cerevisiae expressing SARS-CoV PLpro, growth rescue; control for the full effect not named in the record. Potency, µM (series often up to 32.9 µM), for inactives: top-dose activity, positive = growth rescue. hit rate 0.19% among 330,000; note: 0% is about no effect; nearly all actives have a fitted effect of over 55% in size; growth read by luminescence after 48 h
RE007 growth inh = less growth of the S. pombe RE007 Vpr strain; S. pombe RE007 Vpr strain, BacTiter-Glo ATP luminescence, 24 h; control for the full effect not named in the record; Potency, µM (series often up to 92.2 µM), for inactives: at the top dose activity change, negative = less growth; hit rate 0.21% among 360,000; AID 651644; active = well fitted falling curve with a large enough effect; inconclusive = small, poorly fitted or top-dose-only effect; inactive = no such curve, though single readings can be large or run the other way;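 note: % is set by controls: 0 for no effect and ±100 for the full control effect; nearly all actives have a fitted effect of over 50% in size; the assay follows cell death caused by Vpr and the record does not say whether a fall means rescue or toxicity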
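Fission yeast RE007 carrying one integrated HIV-1 vpr copy, seeded at OD 0.01 in PMG+AL medium with 23 nL pinned compound. Grown 24 h at 30 degrees; viability read by BacTiter-Glo luminescence after 5 min.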
Cruzain noTriton = blocks cruzain activity in detergent-free assay; Potency, µM, inactives show max response, negative = inhibition, usual class: inhibitors; P25779; hit rate 2.3% among 200,000; purified cruzain, Z-FR-AMC fluorescence, no detergent; AID 1476; active = well fitted curve in the direction sought with a large enough effect; inconclusive = small, poorly fitted or top-dose-only effect, or another doubt; inactive = no such curve, though single readings can be large; an effect the other way counts as inactive or inconclusive;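 note: plate controls were enzyme without inhibitor for no effect and buffer without enzyme for full effect; nearly all actives have a fitted effect of over 40% in size; top concentration of the series not given in the record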
Target sequence (P25779 123-467 limits assumed): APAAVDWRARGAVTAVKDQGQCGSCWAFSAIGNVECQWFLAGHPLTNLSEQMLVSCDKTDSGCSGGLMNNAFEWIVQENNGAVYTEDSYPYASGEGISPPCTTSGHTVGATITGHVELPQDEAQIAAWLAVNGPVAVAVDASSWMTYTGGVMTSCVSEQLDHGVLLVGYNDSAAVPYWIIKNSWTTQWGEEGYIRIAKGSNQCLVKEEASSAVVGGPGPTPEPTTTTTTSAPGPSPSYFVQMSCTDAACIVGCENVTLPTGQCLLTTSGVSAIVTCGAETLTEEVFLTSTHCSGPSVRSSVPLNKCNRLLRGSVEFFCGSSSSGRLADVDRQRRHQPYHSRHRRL
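Purified cruzain at 1.5 nM, pre-incubated 15 min with compound at room temperature in 100 mM sodium acetate pH 5.5, 5 mM DTT, 0.00005% Triton X-100. Reaction started with 2 uM Z-FR-AMC; AMC fluorescence increase over 60 s gives rate.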
StopGo reporter = lowers the luciferase signal of an FMDV 2A StopGo reporter | human cells with a luciferase reporter of 2A StopGo recoding; control for the full effect not named in the record | Potency, µM (top dose mostly 57.9 µM), without a hit: at the highest dose signal change, negative = less light | hit rate 1.2% among 410,000 | AID 1159524; active = well fitted falling curve with a large enough effect; inconclusive = small, poorly fitted or top-dose-only effect; inactive = no such curve, though single readings can be large or run the other way; tested in HEK293T cells; note: % is set by controls: 0 for no effect and ±100 for the full control effect; nearly all actives have a fitted effect of over 45% in size; luciferase light after 4 h
Lassa entry inh = blocks Lassa virus binding to or entry into cells. Lassa virus pseudotype entry inhibition, cell reporter; control for the full effect not named in the record. Potency, µM (highest dose often 37.9 µM), for inactives: top-dose activity change, negative = inhibition, hits mostly inhibitors. hit rate 1.2% among 300,000. AID 540256; active means well fitted inhibition curve with a large enough effect; inconclusive means small, poorly fitted or top-dose-only effect, or effect the other way; inactive means flat fitted curve, though single readings scatter; tested in HEK293 cells; note: % is set by controls: 0 for no effect and ±100 for the full control effect; nearly all actives have a fitted effect of over 50% in size; luciferase read-out
NS1 inh = inhibitors of influenza NS1 protein function. S. cerevisiae slowed by influenza A NS1, growth recovery by OD600. Potency, µM (series often up to 46.1 µM), without a hit: at the top dose activity, positive = more growth. hit rate 0.4% among 270,000. AID 2326; note: actives are rising curves; nearly all actives have a fitted effect of over 50% in size
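Recovery from NS1-induced slow growth read by OD600 in budding yeast switched to galactose assay medium (pH 6.0, -URA) at 1:100 dilution. Compound 23 nl per well; the matching strain lacking NS1 serves as control.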
Marburg entry inh = inhibitors of Marburg virus binding or cell entry | Marburg virus pseudotyped entry inhibition, cell reporter; control for the full effect not named in the record; about a third of the inactives were read at about 46 µM | Potency, µM (titrated, usually from 37.8 µM), for inactives: at the top dose activity change, negative = inhibition, most hits filed as inhibitors | hit rate 1.8% among 300,000; active = well fitted inhibition curve with a large enough effect; inconclusive = small, poorly fitted or top-dose-only effect, or effect the other way; inactive = flat fitted curve, though single readings scatter; tested in HEK293 cells; about a fifth of its hits are not listed in these tables; note: % is set by controls: 0 for no effect and ±100 for the full control effect; luciferase read-out
Cruzain inh Det = cruzain (T. cruzi) inhibition with detergent. P25779. purified cruzain, Z-FR-AMC fluorescence, 0.01% Triton. Potency, µM, for the others: max response, negative = inhibition, usual class: inhibitors. hit rate 0.43% among 200,000. AID 1478; active = well fitted curve in the direction sought with a large enough effect; inconclusive = small, poorly fitted or top-dose-only effect, or another doubt; inactive = no such curve, though single readings can be large; an effect the other way counts as inactive or inconclusive;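 note: plate controls were neutral wells for no effect and buffer without enzyme for full effect; nearly all actives have a fitted effect of over 40% in size; top concentration of the series not given in the record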
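Steps: dispense cruzain (1.5 nM final) in acetate buffer pH 5.5 with DTT and 0.01% Triton X-100; pin-transfer compounds; incubate 15 min RT; add Z-FR-AMC (2 uM final); read fluorescence every 30 s, using the 60 s intensity change.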
Starred values were filed as active, the others as inactive; ? = inconclusive; nt = not tested or not shown; & = joins results of further samples; [ ] = remark or other dose. Unless noted, calls come from the whole dose curve; as a rule, active means well fitted rising curve with a large enough effect; inconclusive means small, poorly fitted or top-dose-only effect; inactive means no such curve, though single readings can be large or run the other way. Potency is the fitted concentration of half-maximal effect. Rows are unselected. Share with any hit: about 4.6%.

Results follow in this order: SARS PLP yeast, RE007 growth inh, Cruzain noTriton, StopGo reporter, Lassa entry inh, NS1 inh, Marburg entry inh, Cruzain inh Det
CCN(CC(=O)Nc1ccccc1C(F)(F)F)C(=O)c1ccccc1Cc1ccccc1
    -9%, 3%, nt, -6%, 11µM*, nt, ?, nt
Cc1cccc(NC(=O)CSc2nnc(NC(=O)CN3CCCCC3)s2)c1
    0%, nt, -14%, nt, -4%, -1%, 1%, -3.9%
COc1ccccc1N1CCN(c2ncnc3sc(C)c(-c4ccccc4)c23)CC1
    -1%, -16%, nt, 20µM*, -3%, 7%, -20%[46.1 µM], nt
CCCC1(c2ccsc2)NC(=O)NC1=O (stereo not given)
    nt, -11%, nt, -9%, 0%, nt, 15%, nt
Cc1nc2oc3c(NCC4CCCO4)ncnc3c2c2c1COC(C)(C)C2 (stereo not given)
    -2%, -16%[3.69 µM], 29%, 1%, -14%, -4%, 2%, -5.1%
Cc1ccc2c(=O)[nH]c(Cc3ccccc3C(=O)O)nc2c1
    -1%, 26%, nt, ?, nt, -12%, nt, nt
Cn1cccc1/C=C1\SC(=S)N(NC(=O)c2ccc(Cl)cc2)C1=O
    3%, -4%, 3%, -14%, 5%, 12%, ?, -8.1%
CC(Oc1ccc(Br)cc1)C(=O)NCC(C)(C)N1CCOCC1 (stereo not given)
    3%, 0%, nt, 0%, 19%, nt, 12%, nt
CC(C)(C)C1CCC(=NNc2ccc(S(N)(=O)=O)cc2[N+](=O)[O-])CC1 (stereo not given)
    -9%, ?, 8%, -17%, 2%, 8%, -9%, -5.2%
CSc1nncc(-c2ccccc2)n1
    -3%, -6%, nt, 12%, -7%, nt, ?, nt
O=C(CCn1c(=O)oc2ccccc21)N1CCN(c2ccccc2F)CC1
    -4%, -2%, -5%, 11%, -4%, -6%, 4%, 3.4%
Cc1ccc(NC(=O)c2ccc3ccccc3n2)cc1S(=O)(=O)N1CCOCC1
    -2%, 7%, nt, -2%, ?, nt, ?, nt
O=C1c2ccccc2C(=O)N1CC1CCCO1 (stereo not given)
    1%, -3%, -4%, 1%, 5%, 5%, 2%, 0.4%
Cn1cc(CNC(=O)c2sc3cccc(Cl)c3c2Cl)cn1
    -27%, -9%, ?, 7%, 0%, -8%, 0%, -16%
CCCOC(=O)c1ccc(Oc2cn[nH]c2-c2ccc(OCC(=O)NN)cc2O)cc1
    1%, 4%, nt, 0%, nt, ?, nt, nt
COCCCNc1nc2ccccc2nc1NS(=O)(=O)c1cccc(Cl)c1
    1%, 7%, nt, -3%, nt, 2%, nt, nt
CCN(Cc1cccc(OC)c1)CC1CCCN(CCc2cccc(OC)c2)C1 (stereo not given)
    -5%, -8%, nt, ?, nt, -3%, nt, nt
Cc1ccc2c(c1)C(c1ccccc1)N(C(=O)c1cccc([N+](=O)[O-])c1)CC(=O)N2 (stereo not given)
    0%, 6%, nt, -6%, ?, 1%, ?, nt
Cn1c(=O)c2c(nc(Sc3ncnn3CC(=O)N3CCOCC3)n2C)n(C)c1=O
    0%, 4%, nt, -7%, nt, 3%, nt, nt
CCOC(=O)C1CCCN(C(=O)CCNC(=O)Cn2ccc3ccccc3c2=O)C1 (stereo not given)
    2%, 2%, nt, 9%, 8%, -3%, -12%[46.1 µM], nt
Cc1ccc(-n2c(=O)c3cccnc3n2CC(=O)Nc2cc(C)cc(C)c2)cc1
    nt, nt, -4%, -15%, -6%[46.1 µM], nt, nt, -2.4%
Cc1cc(-c2ccco2)n(CC(=O)NCCN(C)C)n1
    -4%, 12%, 10%, -6%, nt, -4%, nt, 10%
O=C(COc1ccc(Cl)cc1)NNC(=O)c1ccccc1C(=O)O
    -2%, 6%, nt, -2%, 0%, 12%, 21%, nt
CC1CCCCN1CCCNC(=O)c1ccc2c(=O)n(CCc3ccccc3)c(=O)[nH]c2c1 (stereo not given)
    -9%, 6%, -3%, 8%, ?, 1%, ?, -0.3%
OCCNC(=S)Nc1ccc2c(c1)OCCO2
    0%, 14%, nt, 18%, 9%, 4%, 0%[14.2 µM], nt
Cc1oc2cc3oc(=O)c(CCC(=O)NCCCN4CCOCC4)c(C)c3cc2c1C
    -7%, -18%, nt, 18%, nt, 17%, nt, nt
COc1cccc(NC(=O)C(c2ccccc2)N2CCN(c3ccccn3)CC2)c1 (stereo not given)
    -4%, -2%, nt, -20%, nt, nt, ?, nt
CCN(CC)S(=O)(=O)c1ccc(Cl)c(NC(=O)COC(=O)c2ccc([N+](=O)[O-])o2)c1
    -3%, 22%, nt, -1%, nt, -70%, nt, nt
CCN(CC)C(=O)Cn1cc(S(=O)(=O)CC(=O)NCc2ccc(C)cc2)c2ccccc21
    nt, -4%, nt, 36%[activator], ?, nt, 29%, nt
Cc1ccc(NC(=S)NC2CCCC2)c(C)c1
    10%, -10%, nt, 37%[activator], 25%[46.1 µM], -25%, 0%[46.1 µM], nt

The last four records of the section before lead into the next.
mol	SARS PLP yeast	RE007 growth inh	Cruzain noTriton	StopGo reporter	Lassa entry inh	NS1 inh	Marburg entry inh	Cruzain inh Det
COc1cccc(NC(=O)C(c2ccccc2)N2CCN(c3ccccn3)CC2)c1 (stereo not given)	-4%	-2%	nt	-20%	nt	nt	?	nt
CCN(CC)S(=O)(=O)c1ccc(Cl)c(NC(=O)COC(=O)c2ccc([N+](=O)[O-])o2)c1	-3%	22%	nt	-1%	nt	-70%	nt	nt
CCN(CC)C(=O)Cn1cc(S(=O)(=O)CC(=O)NCc2ccc(C)cc2)c2ccccc21	nt	-4%	nt	36%[activator]	?	nt	29%	nt
Cc1ccc(NC(=S)NC2CCCC2)c(C)c1	10%	-10%	nt	37%[activator]	25%[46.1 µM]	-25%	0%[46.1 µM]	nt
O=C(CCC1CCCCC1)Nc1c[nH]c(=O)[nH]c1=O	-3%	-7%	-1%	-3%	8%	-1%	-3%&-15%	-0.9%
Cn1cnc2c(cnn2C)c1=N	nt	-12%	nt	-10%	20%[46.1 µM]	nt	6%[46.1 µM]	nt
CC(=O)C1=C(O)C(=O)N(c2ccccn2)C1c1ccccc1[N+](=O)[O-] (stereo not given)	0%	-19%	nt	-7%	20%[46.1 µM]	1%	-16%[46.1 µM]	nt
CC1CCN(S(=O)(=O)c2ccc3c(c2)CCC(=O)N3CC(=O)Nc2cccc(C#N)c2)CC1	2%	nt	-3%	33%[activator]	6%[46.1 µM]	nt	nt	-6.4%
CCCCN(CCCC)CCCNC(=O)Cn1cc2c(n1)-c1c(oc(C(=O)N3CCCC3)c1C)CC2	3%	-1%	8%	-17%&-9%	2%[46.1 µM]	-15%	nt	-2.4%
CN(C)S(=O)(=O)c1cccc(C(=O)N=C2N=C3C=CC(Cl)=CN3Cc3ccccc32)c1	-2%	0%	nt	59%[activator]	-25%	3%	0%[46.1 µM]	nt
N#CC1=C(N)Oc2cc3c(cc2C1c1ccc(Cl)cc1)OCO3 (stereo not given)	-1%	29%	-3%	nt	?	-15%	-50%	-5.4%
O=c1[nH]c(=O)n(Cc2ccccc2)c(O)c1C=NCCN1CCNCC1	11%	14%	-4%	nt	4%	11%	16%&16%	11%
N#C/C(=C/c1cccs1)c1nc2ccccc2[nH]1	-45%	-13%	14%	-1%	12%	-20%	?	-7.4%
CCOc1ccc2nc(NC(=O)C3=NNC(=O)CC3)sc2c1	1%	-1%	nt	31%[activator]	22%	nt	?	nt
COc1ccc(S(=O)(=O)N2CCCCCC2)cc1NC(C)C(=O)Nc1ccc(NC(C)=O)cc1 (stereo not given)	nt	2%	nt	-19%	-2%	nt	?	nt
CCNC(=S)Nc1cc(OCC)c(N2CCOCC2)cc1OCC	-2%	14%	-7%	-13%	?	5%	-9%	0.1%
Nc1nc(-c2ccco2)nn1C(=O)c1ccccc1	-6%	5%	-5%	-13%	-5%	3%	10%	3.3%
CCOC(=O)c1c(NC(=O)COC(=O)c2ccc(C)s2)sc2c1CC(C)(C)NC2(C)C	0%	8%	nt	-18%	?	nt	?	nt
CC(C)CCC(C)NC(=O)C1CCN(S(=O)(=O)/C=C/c2ccccc2)CC1 (stereo not given)	-18%	4%	nt	-2%	11%[46.1 µM]	-4%	18%[46.1 µM]	nt
COc1ccc(N(CC(O)CN2C(=O)NC(C)(C)C2=O)S(=O)(=O)c2ccc(C)cc2)cc1 (stereo not given)	10%	2%	3%	-4%	-18%	5%	4%	0.8%
O=C(Nc1cc2c(cc1C(=O)O)OCCCO2)c1ccc(C(F)(F)F)cc1	0%	-9%	nt	24%	-8%[46.1 µM]	1%	?	nt
CCCCS/C(N)=N/N=C/c1ccccc1O	-7%	?	-2%	65%[activator]	?	-19%	?	-4.2%
COc1ccc(-c2nc3scc(CCNS(=O)(=O)c4ccc5c(c4)OCCO5)n3n2)cc1	nt	nt	9%	6%	-5%[46.1 µM]	nt	nt	-6.3%

Screening data (PubChem)
